# Bioassay records as filed in PubChem BioAssay.
# Vaccinia Venus: inhibitors of vaccinia virus (Venus reporter); Vaccinia virus Venus reporter expression, fluorescence; Potency, µM (doses to about 36.5 µM), without a hit: at the top dose activity change, negative = inhibition, actives largely listed as inhibitors; 0.46% of 330,000 active; AID 720580; active means well fitted inhibition curve with a large enough effect; inconclusive means small, poorly fitted or top-dose-only effect; inactive means no such curve, though single readings can be large or run the other way; tested in A549 cells; further: nearly all actives have a fitted effect of over 30% in size; inactives centre near -10
# Vaccinia mCherry: vaccinia inhibition (mCherry reporter); Vaccinia virus mCherry reporter infection, fluorescence; about a quarter of the inactives have no number; 0.63% of 310,000 active; Potency, µM (doses to about 36.5 µM), inactives show top-dose activity change, negative = inhibition, most hits filed as inhibitors; active = well fitted inhibition curve with a large enough effect; inconclusive = small, poorly fitted or top-dose-only effect; inactive = no such curve, though single readings can be large or run the other way; tested in A549 cells; further: nearly all actives have a fitted effect of over 35% in size; inactives centre near -10
# Numbers without * were called inactive; i = inactive; ? = inconclusive; . = no result given; [ ] = remark or other dose. On the % scale 0 is the no-effect control and ±100 the full control effect; potency means the concentration at half of the fitted maximal effect.
SMILES	Vaccinia Venus	Vaccinia mCherry
Cc1cc(O)c2c(C)c(CC(=O)N3CCCCC3)c(=O)oc2c1	2%	-10%
Cc1[nH]n(-c2cccc(Cl)c2)c(=O)c1C=NCC(C)C	-10%	-4%
COC1CCCCC1Nc1ccc(C)c(C)c1 (stereo not given)	-1%	-16%
CSC1=NC=C(C#N)C2=NC(c3c(Cl)cccc3Cl)NN12 (stereo not given)	-5%	8%
CCN1CCN(C(=O)c2cnn(-c3cccc(C)c3)c2C2CCN(C(=O)OC(C)(C)C)CC2)CC1	-4%	-16%
Cc1cccc(C(P(=O)(c2ccccc2)c2ccccc2)P(=O)(c2ccccc2)c2ccccc2)n1	-10%	-26%
Cc1ccc(NC(=O)Cn2c(=O)oc3cc(S(=O)(=O)N4CCCCC4)ccc32)c(Cl)c1	-14%	-25%
CCC1CCCCN1Cc1nc2c(c(=O)n(C)c(=O)n2C)n1CCC(C)C (stereo not given)	-3%	-6%
Fc1cccc(C2NCc3ccccc3-n3cccc32)c1 (stereo not given)	-9%	?
Cc1ccc(C(=O)Nc2cc(-c3nc4ncccc4o3)ccc2C)c(C)c1	-2%	-5%
O=C(Nc1ccc(Oc2ccccc2)cc1)c1ccco1	-11%	i
Cc1ccc2[nH]c(CSc3nnc(COc4ccccc4C)n3C)cc(=O)c2c1	-8%	-9%
O=C(CN1CCOCC1)N/N=C/C(Br)=C\c1ccccc1	-15%	0%
CC1(C)N=C(N)N=C(N)N1c1ccc(OCC(=O)N2CCOCC2)c(Cl)c1	?	?
Cc1ccccc1NC(=O)CS(=O)(=O)c1cccc2nsnc12	-2%	1%
Cc1ccc2cc(CN(CC3CCCO3)C(=S)Nc3ccccc3)c(=O)[nH]c2c1C (stereo not given)	-17%	?
Cc1ccc(C)c(Nc2ccc(C(=O)NCCc3ccccc3)cn2)c1	-7%	-14%
CCCC(=O)N1CCCC1(C)C(=O)Nc1ccc2nc(C)ccc2c1 (stereo not given)	-4%	i
O=c1[nH]c2ccc(S(=O)(=O)Nc3ccc(Br)cc3)cc2[nH]1	-1%	i
CCOc1cc(C2CC(=O)c3c(ccc4ccccc34)N2)ccc1O (stereo not given)	?	.
Cc1ccc(C)c(N2CCN(C(=O)C(Cc3ccccc3)n3cccc3)CC2)c1 (stereo not given)	-6%	8%
C[C@H](c1ccccc1)N1C[C@H](COCc2ccccc2)Oc2cc(N3CCC[C@@H]3CO)ccc2S1(=O)=O	-13%	1%
CC(C)NC(=O)c1cc(C2CCCCN2S(=O)(=O)c2cccc3cccnc23)on1 (stereo not given)	-9%	31%[activator]
COc1cc(/C=C/CNC[C@H]2O[C@@H](n3cc(C)c(=O)[nH]c3=O)C[C@@H]2O)ccc1O	-10%	-12%
Cc1cc(C(=O)N2CCN(c3ccc(F)cc3)CC2)on1	5%	i
Cc1ccccc1C(=O)N1CCC(C(=O)OCc2ccccn2)CC1	-5%	i
COc1cccc(CNC(=O)Cc2c(C)c3c(cc(C)c4c(C)coc43)oc2=O)c1	-7%	-9%
CCOc1ccccc1N(CC(=O)Nc1ccc(S(=O)(=O)N2CCOCC2)cc1)S(=O)(=O)c1ccccc1	-18%	.
N/C(=N\OC(=O)c1ccc2c(c1)OCO2)c1ccc(Br)cc1	-8%	i
C=CC(=O)Nc1cccc(Oc2ncnc3[nH]cc(-c4cnc5ccccc5c4)c23)c1	11µM*	?
COc1ccc(N2C(=O)C(CC(=O)Nc3ccc(F)cc3)N(CCc3cccs3)C2=O)cc1 (stereo not given)	-15%	-12%
COc1ccc(OC)c(NS(=O)(=O)c2ccc3[nH]c(=O)[nH]c3c2)c1	-24%	-8%
CCN1CCN(C(c2cccs2)C(C)NC(=O)CC(C)C)CC1 (stereo not given)	0%	i
CSc1ncccc1C(=O)OCC(=O)NCc1cccs1	-11%	i
COc1ccc2c(c1)c1c(c(=O)n(Cc3ccccc3)c(=O)n1CC(=O)Nc1cc(C)cc(C)c1)n2C	-3%	3%
O=C(CSc1nc2ccsc2c(=O)n1Cc1ccccc1)NCC1CCCO1 (stereo not given)	5%	1%
CC1(C)Cc2nc(-c3ccccc3)nc(SCC(=O)N3CCCC3)c2CO1	-8%[7.34 µM]	-21%[7.34 µM]
N#CC1(P(=O)(c2ccccc2)c2ccccc2)CCCC1	3%	i
C/C(=N\NC(=O)C(O)c1ccccc1)c1cccnc1 (stereo not given)	-5%	i
COc1ccc(-n2ncc3c(=O)n(CC(=O)Nc4ccc(S(=O)(=O)N5CCOCC5)cc4)cnc32)cc1	-26%	-5%
Cc1c(O)cccc1C(=O)N[C@@H](CSc1ccccc1)[C@H](O)CN1C[C@H]2CCCC[C@H]2C[C@H]1C(=O)NC(C)(C)C	?	?
COc1ccc(/C=C2/SC(=O)N(CC(=O)Nc3cc(C)on3)C2=O)cc1OC	18%	-6%
COc1ccc(NC(=O)C(CC(C)C)NC(=O)c2ccccc2C)cn1 (stereo not given)	9%	-5%
Cn1c(CO)nc2c3ccccc3ccc21	0%	-3%
CCC(C(=O)NCc1ccccc1)n1c(C2CCN(C(C)=O)CC2)nc2ccccc21 (stereo not given)	-14%	-10%
O=C(NCCCN1CCOCC1)Nc1ccc(Cc2ccc(NC(=O)NCCCN3CCOCC3)cc2)cc1	-8%	-22%
COc1ccc2[nH]c(=O)c(CN(CCO)C(=O)c3ccccc3F)cc2c1	-17%	-11%[1.46 µM]
N#Cc1cccc(NCC(=O)Nc2ccc3c(c2)OCCO3)c1	-9%	-3%
Cc1noc(C)c1NC(=O)N(C)C[C@H]1Oc2c(NC(=O)C3CCCCC3)cccc2C(=O)N([C@H](C)CO)C[C@@H]1C	0%	0%
Cc1ccc(OCCNC(=O)c2ccccc2N)cc1	-4%	-14%
Cc1ccc(S(=O)(=O)CCC(=O)OCc2nc(N)nc(Nc3ccccc3C)n2)cc1	-29%	-13%
Cc1cc(C(=O)COC(=O)c2ccc(N)cc2)c(C)n1-c1c(C)n(C)n(-c2ccccc2)c1=O	-11%	-5%
Cc1ccc(N2C(=O)N3[C@H](c4ccc(F)cc4)[C@@H]4C(=O)N(C5CCCCC5)C(=O)[C@@H]4[C@]3(Cc3ccccc3)C2=O)cc1	-14%	i
Cc1ccc2c(CN3CCN(Cc4ccccc4)CC3)cc(=O)oc2c1C	-3%	-12%
CCCCC(NC(C)=O)c1nc2ccccc2[nH]1 (stereo not given)	2%	-13%
Cc1cccc(CC(=O)N2CCN=C2SCc2ccc([N+](=O)[O-])cc2)c1	-22%	-17%
Cc1cccc(NC(=O)CSc2ncnc3nc[nH]c23)c1	-10%	.
CCN(C(=O)COC(=O)Cc1c[nH]c2ccccc12)c1c(N)n(Cc2ccccc2)c(=O)[nH]c1=O	-1%	-6%
O=c1ccc(-c2nc3ccccc3n2Cc2ccccc2Cl)c[nH]1	-9%	-18%
C[C@H](NC(=O)[C@@H]1CCCN1C(=O)[C@@H]1CCCN1C(=O)c1cccc(Cl)c1)c1ccccc1	2%	-7%

# Other results.
SMILES	Vaccinia Venus	Vaccinia mCherry
Cc1sc(C(=O)NCc2cccnc2)c2nc(C)n(CC(=O)NCc3cccnc3)c(=O)c12	-7%	-12%
Cc1cc(C(=O)N/N=C/c2ccc(-c3ccccc3Cl)o2)n[nH]1	?	-24%
COc1ccc(-c2c(C#N)c(N)nc3c2c(=O)n(C)c(=O)n3C)cc1	-4%	.
CN(C)c1ccc(C(=O)NCc2ccc3c(c2)CCN3C(=O)c2ccccc2)cc1	-7%	-8%
COC(=O)CCCCCc1ccc(C(C)=O)s1	-18%	i
CCN(C(=O)CN1CC(C)OC(C)C1)c1c(N)n(Cc2ccccc2)c(=O)[nH]c1=O (stereo not given)	-4%	-1%
O=S(=O)(c1ccc(Br)cc1)N1CCN(c2ccccc2)CC1	2%	i
COc1ccc(C(NC(C)=O)c2ccc3cccnc3c2O)cc1OC (stereo not given)	?	7.9µM*
COc1ccc(CC(=O)Nc2ccc(-c3cn4ccccc4n3)cc2)cc1OC	?	.
COc1ccc(-c2ccc(CCC(=O)O)n2Cc2ccco2)cc1	5%	-1%
COC(=O)c1cccc(Nc2c3c(nc4ccccc24)CCC3)c1	-25%	-20%
COc1ccc2c(c1)oc(=O)c1cc(OC)ccc12	10%	19%
O=C(Nc1ccc(F)cc1F)c1cc2n(n1)C(C(F)(F)F)C1CCCCC1N2 (stereo not given)	-8%	.
Cc1ccc(N2C(=S)NC3c4ccccc4OC2(C)C3C(=O)N(C)C)cc1 (stereo not given)	-5%	i
CC(=O)COC(=O)CCc1nc2ccccc2[nH]c1=O	-3%	i
C=CCOc1ccc(CN(C)c2ccc(S(=O)(=O)N3CCN(C)CC3)cc2[N+](=O)[O-])cc1	-27%	?
O=C(CCc1ccccc1)N(Cc1cccnc1)c1nc2c(F)cccc2s1	-16%	-13%
COc1cc(NC(=O)CSc2ccc(-c3cccnc3)nn2)cc(OC)c1	-8%	-25%
CC(C)[N+]1(C)[C@@H]2CC[C@@H]1CC(OC(=O)C(CO)c1ccccc1)C2 (stereo not given in full)	-9%	-1%
O=C1/C(=C/c2cccs2)NC(=S)N1C1CC1	-13%	i
COc1cccc(OC)c1C(=O)NC(=S)Nc1ccc2oc(-c3ccncc3)nc2c1	-11%	-20%
Cc1ccc(-c2nc3c4ccccc4n(CC(=O)N4CCN(c5ccc(F)cc5)CC4)c(=O)n3n2)cc1	-6%	-10%
COc1cc(OC)c(OC)cc1/C=C1/C(=O)NC(=O)N(Cc2ccccc2)C1=O	-5%	-5%
CCN1CCN(c2cc(C)c3cc(NC(=O)c4cc(OC)c(OC)c(OC)c4)ccc3n2)CC1	-20%	?
CC(=O)c1c(C)[nH]c(C(=O)NC2CCSc3ccccc32)c1C (stereo not given)	-29%	-2%
CSCC[C@H](NC(=O)NCc1ccccc1F)C(=O)O	-5%	.
O=C1NC(=S)S/C1=C\c1ccc2ccccc2c1	-28%	?
CCN1CCCC1CNC(=O)c1cc(N)ccc1OC (stereo not given)	-10%	-11%
O=C(COc1ccc(Br)cc1Cl)NC(=O)NCc1ccccc1	-13%	-17%
COc1ccccc1CNC(=O)C(Cc1c[nH]c2ccccc12)NC(=O)OCc1ccccc1 (stereo not given)	-26%	-28%
COc1cc(NC(=S)NCCO)c(OC)cc1Cl	-3%[7.34 µM]	-14%[7.34 µM]
CC(C(=O)Nc1ccc2c(c1)OCCO2)N(C)Cc1c(F)cccc1Cl (stereo not given)	-1%	-6%
CC(=O)NC(CC(=O)Nc1cc(Cl)ccc1-n1cncn1)c1ccccc1 (stereo not given)	-3%	-4%
Cc1cccc(N(CC(=O)NCCSc2ccccn2)S(=O)(=O)c2ccccc2)c1	-10%	i
CCN(CC)CCNC(=O)c1ccc2c(c1)NC(=O)C(CS(=O)(=O)Cc1cccc(Br)c1)N2 (stereo not given)	8%	-15%
O=C(c1cc(-c2cccc(Cl)c2)on1)N1CCN(c2ccc(F)cc2)CC1	-22%	i
COc1cccc(C(=O)c2c(C)c(CCC#N)n3ccccc23)c1OC	-10%	-12%
C[C@@H]1CN([C@@H](C)CO)C(=O)CCCn2nncc2CO[C@@H]1CN(C)C(=O)c1ccncc1	2%	i
CCC(=O)OC1(C(=O)CCl)[C@@H](C)C[C@H]2[C@@H]3CCC4=CC(=O)C=C[C@]4(C)[C@@]3(F)[C@@H](O)C[C@@]21C (stereo not given in full)	-14%	i
